RN4220 kill: growth inhibition of S. aureus RN4220, primary screen, OD600. AID 1259311, 2017. 0.33% of 330,000 active. inhibition, % (concentration not given with the values). 16 h;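 active = z-score of -3 or lower and OD600 up to 0.18 on both plates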;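 note: plate controls were untreated cells for no effect and reference antibiotic for full effect; stock transfer was 100 nL into about 80 µL; one replicate is shown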
Autofluor counter: compound fluorescence in toxin protease inhibitor counterscreen | compound autofluorescence counterscreen, microsphere flow cytometry; hits give high values | fluorescence intensity (no concentration beside the values) | 3.1% of 360,000 active | AID 624483;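 active = at least 3 SD above the mean of all compounds, about 16000 in these data; inconclusive = too few beads counted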;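 note: 100 nL of 1 mM stock went into each well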
Mtb hypoxia inh: PubChem AID 1159583 | M. tuberculosis hypoxia-regulated fluorescent reporter, fluorescence | fluorescence inhibition, % (concentration not given with the values) | 0.1% of 300,000 active;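 active = 35 to 45% if threefold the growth effect, above 45% if 1.5-fold the growth effect; inactive = the rest, general growth blockers included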;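 note: wells of about 50 µL received 100 nL stock; 0% = vehicle wells and 100% = reference inhibitor wells; whole bacteria with a GFP reporter of the hypoxia response; strong numbers were not always called active; many hits fall short of the cut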
BJeLR lethal: MLPCN primary cell-based screen for lethality selective to Ras in HRASV12 cells; BJeLR (HRASV12) viability, CellTiter-Glo ATP luminescence, 48 h; reference of the scale not given here; inhibition, % (concentration not given with the values); 0.17% of 300,000 active;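 active = replicate mean above 50%; inconclusive = above 50% but judged a plate artefact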;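 note: 50 nL library stock added to about 25 µL; numbers are from one replicate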
PrP UTR inh: inhibition of PrP 5' UTR reporter expression | cell-based PrP 5' UTR mRNA reporter, plate reader | inhibition, % (test concentration not listed) | 0.35% of 340,000 active | AID 488862, 2010;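 active = every replicate at 50% or more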;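 note: 0 = median of the neutral control wells; tested in H4 reporter cells; numbers are from one replicate; inactives centre near -14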
ugtP null kill: growth inhibition of ugtP-null S. aureus, primary screen, RN4220 ugtP deletion, OD600; growth inhibition, % (test concentration not listed); AID 1259309, 2017; 0.54% of 330,000 active; 16 h; some inactives read as strong as hits;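 active = z-score under -3 and OD600 up to 0.15 on both plates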;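 note: plate controls were untreated wells for no effect and antibiotic for full effect; wells of about 80 µL received 100 nL stock; the first replicate is given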
Mtb hypoxia inh growth: also measured in Mtb hypoxia inh; calls as there; growth inhibition, %; measured here: M. tuberculosis growth (absorbance);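 0% = vehicle and 100% = reference antibiotic; read after six days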
* marks the source's active call; other numbers are inactive results; ? = inconclusive; . = not tested or not shown.

The line under a structure holds: RN4220 kill, Autofluor counter, Mtb hypoxia inh, Mtb hypoxia inh growth, BJeLR lethal, PrP UTR inh, ugtP null kill
- Cn1cccc1CNC1CCCCC1
  2.0, 11475, 6, 4, -2, -11, 0
- CCN(CC)CCCNC(=O)c1cc(-c2ccc(Cl)cc2)on1
  0.1, 8302, 7, 9, -6, 5, -2
- Cc1noc(C)c1CC(=O)N1CCCC(N2CCN(c3ccccc3F)CC2)C1 (stereo unspecified)
  0.2, 5040, 0, 0, -5, -14, -1
- CC(C)C(O)P(=O)(OCc1ccccc1)c1ccc(N(C)C)cc1 (stereo unspecified)
  3.7, 20468*, 5, 5, -2, -20, -5
- Cc1ccc(C(=O)NN=Cc2cc3c(cc2Br)OCO3)cn1
  2.0, ., 7, -2, ., ., 8
- CCON=CC1=C(O)C(C(=O)OC)C(C)(C)CC1=O (stereo unspecified)
  6.2, ., -1, 2, ., ., 20
- COc1ccc(CCn2nnnc2C(c2ccc(Cl)cc2)N2CCN(C)CC2)cc1OC (stereo unspecified)
  -1.6, 4489, ., ., -17, -17, 2
- CCc1[nH]c(C)c(C(C)=O)c1C
  6.4, 5995, 7, 0, 4, -4, 15
- O=C(Nc1cccc(C(F)(F)F)c1)C1CC(=O)N(CCc2ccccc2)C1 (stereo unspecified)
  4.1, 6125, 8, 3, ., -7, -1
- Cc1ccc(CC(=O)NCCS(=O)c2ccc(Cl)cc2)cc1 (stereo unspecified)
  1.1, 3732, ., ., 4, -2, 3
- O=C(O)CN1C(c2ccccc2)=Nc2ccc(Br)cc2C1c1ccccc1 (stereo unspecified)
  1.7, 4860, -2, -6, 1, -20, 5
- CC(=O)NCCc1nc2cc(NC(=O)c3ccc([N+](=O)[O-])cc3)ccc2n1C
  3.1, 2995, -1, -6, -2, -33, 5
- Cc1nc(-c2cccc(NC(=O)c3ccc(Br)o3)c2)cs1
  9.2, 6681, 7, 15, ., -14, -5
- Cc1cccc(OCC(=O)N2CCN(C(=O)Cc3ccccc3)CC2)c1
  1.1, 2771, ., ., -6, -20, 1
- OCc1nnn(-c2ccccc2)c1CO
  ., 4006, ., ., 10, -12, .
- O=C(CN1C(=O)COc2ccccc21)NCCCN1CCCC1
  4.3, 4572, 9, -1, 10, 0, 2
- Cc1ccc(NC(=S)NCc2ccc(Cl)cc2)c(C)c1
  -1.3, 2690, -3, -6, -6, -4, -4
- CCC(CC)Nc1ccc(C(CC(N)=O)NC(=O)Cc2cccc3ccccc23)cc1[N+](=O)[O-] (stereo unspecified)
  -18, 2948, 12, 4, -10, -5, 1
- CCCCn1c(N)c(N(CCOC)C(=O)c2ccc(S(=O)(=O)N3CCCCCC3)cc2)c(=O)[nH]c1=O
  -0.9, ., -1, 2, -3, -8, -1
- O=C1Nc2ccc(C(=O)O)c(O)c2C1=O
  1.1, 3858, 4, 6, ., -17, 5
- COc1ccc2[nH]cc(CCN(C)C)c2c1
  4.6, 4199, 1, 8, 0, -10, -1
- COc1cccc(CN(C(=O)/C=C/c2ccc(Cl)cc2)C2CCS(=O)(=O)C2)c1 (stereo unspecified)
  6.1, 3929, 16, 16, -4, -34, 7
- Cc1c(NC(=S)NC(=O)c2cc3ccccc3o2)cccc1C(=O)O
  4.2, 4533, 4, 5, 1, -10, -5
- CCCCCCCC(=O)NN=Cc1ccc([N+](=O)[O-])o1
  21, ., 8, 1, ., ., 33
- COc1ccccc1NC(=O)CSc1nc(N)cc(N)n1
  1.7, 21327*, 6, 1, -12, -3, 8
- O=C(Nc1cccc2c1CCCC2)c1ccc(Br)o1
  6.2, ?, 16, 8, 11, 16, 0
- CC(C)(C)NC(=O)NC(=O)COC(=O)C1(C)CC1(Cl)Cl (stereo unspecified)
  6.4, 1978, 3, -1, -8, -12, 7
- O=C(NN=Cc1cccnc1)c1ccc2ccccc2c1O
  2.1, ., 2, 12, ., ., -3
- CCOC(=O)CSC1=C(C#N)C(c2sccc2C)CC(=O)N1 (stereo unspecified)
  4.6, 10804, 5, 6, 15, -32, -4
- Cc1nc2ncnn2c(C)c1CCC(=O)NC(C)c1ccc2c(c1)OCCO2 (stereo unspecified)
  2.1, 22862*, 10, 10, -4, -34, 1
- CC(C(=O)Nc1ccccn1)(c1ccccc1)c1ccccc1
  3.3, 4353, 13, 8, -1, -19, 4
- Cc1ccc(NNC(=O)c2cccs2)cc1Cl
  -1.9, ., 1, -1, 4, -9, 2
- O=C1NC(=O)N(c2ccc3c(c2)OCO3)C(=O)/C1=C/c1ccc(N2CCCCC2)o1
  -14, 3982, 20, 3, 4, -12, -6
- O=C(N/N=C\c1cn(-c2ccccc2)nc1-c1ccccc1)c1ccc(Br)o1
  ., 2027, ., ., 2, -31, .
- CCC1(C2=CCCCC2)C(=O)NC(=S)N=C1N (stereo unspecified)
  0.7, 3885, 5, 8, ., -25, -6
- Cc1cc(C)nc(N=C(N)Nc2ccc(SC(F)F)cc2)n1
  4.8, ., -17, -2, ., ., 20
- COC(=O)Cn1c(=NC(=O)c2ccc([N+](=O)[O-])s2)sc2cc(Br)ccc21
  99*, ., 11, 4, -3, ., 97*
- Cc1ccc(SCc2c(C(=O)NN=CC3CC=CCC3)nnn2-c2nonc2N)cc1 (stereo unspecified)
  1.8, ., -2, 3, ., ., 1
- CC1CCN(C(=O)CNC(=O)Cc2ccccc2)CC1
  12, 4397, -2, -10, 6, -26, 5
- CCN1CCN(Cc2ccccc2C)CC1
  0.2, 10229, -2, -5, -9, -14, 0
- CC(C)(C)c1ccccc1OCCCCN1CCCC1
  -19, 3108, 5, 11, 2, -28, -2
- Cc1noc(NS(=O)(=O)c2ccc(NC(=O)Cc3ccc([N+](=O)[O-])cc3)cc2)c1C
  0.3, 6085, -7, 11, 0, -12, -8
- CC1C(C)C(O)(c2ccccc2)CCN1C (stereo unspecified)
  1.2, 4434, 9, 5, -12, -9, 0
- Cc1ccc(S(=O)(=O)N2CCN(CCc3ccccc3)CC2)c(C)c1
  0.7, 3631, 8, 1, -6, -26, 21
- CC(NC(=O)CN(Cc1ccccc1)S(=O)(=O)c1ccccc1)c1cccnc1 (stereo unspecified)
  0.2, ., 7, -6, ., -7, -3
- CC1(C(=O)Nc2ccc3ccccc3c2)CC1(Br)Br (stereo unspecified)
  2.4, 4018, 8, 3, -1, -35, 19
- Cc1ccccc1NC(=O)c1c(C)cc(=O)oc1C
  1.6, 6057, 0, -5, -9, -5, 0
- CCC(=NCc1cccnc1)c1c(O)n(-c2ccc(Cl)cc2)c(=O)[nH]c1=O
  2.6, 5730, 10, 8, 6, -3, 6
- CCN(C(=O)COC(=O)Cn1c(C)csc1=O)c1c(N)n(Cc2ccccc2)c(=O)[nH]c1=O
  -1.4, 5455, -3, 2, 2, 8, -1
- O=C(N/N=C/c1cccnc1)c1ccccc1OCc1ccc(Br)cc1
  ., 4948, ., ., 6, 4, .
- COc1ccccc1NCC(=O)c1ccc(C)c(C)c1
  0.8, 3372, -1, -4, -8, -19, 2
- Cc1ccc(NC(=O)C(OC(=O)c2ccc(C=O)cc2)c2ccccc2)cc1Cl (stereo unspecified)
  -13, 2338, 9, 6, 8, -18, 90*
- COc1cccc(CN2CCNC(=O)C2CC(=O)NC2CCCCC2)c1OC (stereo unspecified)
  ., 5620, ., ., 0, -14, .
- CCN(c1ccccc1)S(=O)(=O)c1cc(C(=O)OCC(=O)c2c(N)n(C)c(=O)n(C)c2=O)ccc1C
  -3.9, 5344, 7, 0, ., -7, -26
- CC(C)COc1ccc(C(=O)OC2CC(C)(C)OCC2CN(C)C)cc1 (stereo unspecified)
  1.4, 2119, ., ., 6, 3, 10
- COc1cc(/C=C2/NC(=O)N(Cc3ccccc3F)C2=O)ccc1Oc1ccc([N+](=O)[O-])cn1
  ., 2972, ., ., 12, -12, .
- CC1CCCCC12NC(=O)N(Cc1cc(=O)n3ccsc3n1)C2=O (stereo unspecified)
  0.8, 3299, 9, 3, 7, -5, 0
- CSCC[C@H](NC(=O)OC(C)(C)C)c1nnc(SCC=C(C)C)o1
  6.7, 25549*, 7, 4, 1, 0, 8
- CCN1C[C@]2(C)CC[C@H](OC)[C@]34C2[C@H](OC(C)=O)[C@@]2(OCO[C@@]25C[C@H](OC)[C@H]2C[C@]3(O)C5[C@H]2OC)[C@@H]14
  ., 3023, ., ., -8, -14, .
- COc1ccc(C(CNC(=O)COc2ccccc2)N2CCOCC2)cc1 (stereo unspecified)
  2.1, 6260, -1, -8, 4, -22, -4

Next part
The line under a structure holds: RN4220 kill, Autofluor counter, Mtb hypoxia inh, Mtb hypoxia inh growth, BJeLR lethal, PrP UTR inh, ugtP null kill
- CCCc1nn(-c2cc(Cl)ccc2OC)c2c1C(=O)CCC2
  8.5, 5635, 7, 7, 5, -64, 9
- Cc1cc(C(=O)NNC(=O)c2ccc(Cl)c(S(N)(=O)=O)c2)c(C)o1
  0.3, 4072, 5, 6, ., -12, 2
- CC(=O)N1CCOc2ccc(S(=O)(=O)NCc3ccc(C)cc3)cc21
  6.2, 5138, -5, -3, 13, -17, 7
- COc1cccc(NC(=O)CSc2nnc(CNC(=O)c3ccccc3F)o2)c1
  1.0, 5599, 3, 10, -8, -19, 3
- COc1ccc(C(C)NC(=O)c2ccoc2C)cc1OC (stereo unspecified)
  -2.1, 24236*, 1, 8, -5, -16, -2
- O=c1c2c3c(sc2nc2n1CCCS2)CCCC3
  11, 4075, 9, 5, 4, -48, 7
- Cc1cccn2c(CN(C)CCC3CCCCO3)c(C(=O)N3CCCCC3)nc12 (stereo unspecified)
  5.7, 2580, 8, 3, -2, -12, 10
- NC(N)=NN=C1CCCCCCCCCCC1
  2.0, 4144, 8, 5, 3, -7, -4
- O=C(NCCNc1ccc([N+](=O)[O-])cc1)c1ccco1
  -1.0, 4306, 10, 9, -13, -14, 0
- COc1ccc2[nH]c(=O)c(CN(CC3CCCO3)S(=O)(=O)c3ccccc3)cc2c1 (stereo unspecified)
  8.0, 4459, 6, 5, 0, -31, -2
- CC(C)(C)C1CCc2c(sc(NC(=O)C3CCCO3)c2C(N)=O)C1 (stereo unspecified)
  2.0, 2623, ., ., 5, -22, 17
- Cc1cccc(C(=O)Nc2ccc(C(=O)N3CCCCC3C)cc2)c1 (stereo unspecified)
  1.5, 5660, -3, 11, 1, -11, 2
- Cc1ccc(C)c(NC(=O)CN(C)C(=O)Cc2coc3cc(C)c(C)cc23)c1
  5.7, 6070, 5, -2, -1, -19, 8
- Cc1ccc(C(=O)C(NC(=O)c2ccco2)N2CCOCC2)cc1 (stereo unspecified)
  2.6, 9136, 1, 5, -8, -38, -3

An excerpt of these results, bar-delimited:
Structure | RN4220 kill | Autofluor counter | Mtb hypoxia inh | Mtb hypoxia inh growth | BJeLR lethal | PrP UTR inh | ugtP null kill
CCC1(C2=CCCCC2)C(=O)NC(=S)N=C1N (stereo unspecified) | 0.7 | 3885 | 5 | 8 | . | -25 | -6
CC(=O)NCCc1nc2cc(NC(=O)c3ccc([N+](=O)[O-])cc3)ccc2n1C | 3.1 | 2995 | -1 | -6 | -2 | -33 | 5

Arranged by molecular weight (smallest number first): some entries from above
The line under a structure holds: RN4220 kill, Autofluor counter, Mtb hypoxia inh, Mtb hypoxia inh growth, BJeLR lethal, PrP UTR inh, ugtP null kill
- NC(N)=NN=C1CCCCCCCCCCC1
  2.0, 4144, 8, 5, 3, -7, -4
- O=c1c2c3c(sc2nc2n1CCCS2)CCCC3
  11, 4075, 9, 5, 4, -48, 7
- Cc1cccc(C(=O)Nc2ccc(C(=O)N3CCCCC3C)cc2)c1 (stereo unspecified)
  1.5, 5660, -3, 11, 1, -11, 2
